Source: PubChem BioAssay
VACV Venus inh: inhibitors of vaccinia virus (Venus reporter) | Vaccinia virus Venus reporter expression, fluorescence | 330,000 compounds, 0.46% hits | Potency, µM (doses to about 36.5 µM), for inactives: at the highest dose activity change, negative = inhibition, usual class: inhibitors; active means well fitted inhibition curve with a large enough effect; inconclusive means small, poorly fitted or top-dose-only effect; inactive means no such curve, though single readings can be large or run the other way; tested in A549 cells; also: nearly all actives have a fitted effect of over 30% in size; inactives centre near -10
Vaccinia mCherry: inhibitors of vaccinia virus infection (mCherry reporter signal); Vaccinia virus mCherry reporter infection, fluorescence; about a quarter of the inactives have no number; Potency, µM (highest dose often 36.5 µM), for inactives: at the top dose activity change, negative = inhibition, actives largely listed as inhibitors; AID 720579; 310,000 compounds, 0.63% hits; active = well fitted inhibition curve with a large enough effect; inconclusive = small, poorly fitted or top-dose-only effect; inactive = no such curve, though single readings can be large or run the other way; tested in A549 cells; also: nearly all actives have a fitted effect of over 35% in size; inactives centre near -10
Starred values were filed as active, the others as inactive; i = inactive; ? = inconclusive; · = not tested or not shown; & = joins results of further samples; [ ] = dose if it differs, or a comment. % is scaled to controls: 0 for no effect and ±100 for the full control effect; potency is read from the fitted curve at half-maximal effect.

SMILES	VACV Venus inh	Vaccinia mCherry
O=C(CCCCn1c(=O)c2ccccc2n(CC(=O)Nc2ccc(F)cc2F)c1=O)NCCc1ccccc1	5%	-5%
CCOc1ccc(-c2c(=O)n(OCc3ccc([N+](=O)[O-])cc3)c3ccccc3[n+]2[O-])c(OCC)c1	-1%	i
CCOC(=O)N1CCN(C(=O)COC(=O)c2ccc(N(C)C)cc2)CC1	0%	-7%
CC(C)Cn1cc(NC(=O)N2CCN(c3ccc(F)cc3)CC2)c2ccccc2c1=O	-3%	2%
Cc1oc(-c2ccccc2)nc1CC(=O)O	-3%	i
COc1ccc(/C=C2/SC(=S)N(CCC(=O)O)C2=O)cc1	-8%	-12%
CCCCCCn1cc(CN2CC(N3CCN(C)CC3)CS2(=O)=O)nn1 (configuration not stated)	-12%	-3%
CC1CCC(NC(=O)c2ccc3c(c2)N(Cc2ccccc2F)C(=O)c2ccccc2S3(=O)=O)CC1 (configuration not stated)	-6%	-5%
O=C(Nc1nnc(S(=O)(=O)N2CCCCCC2)s1)c1ccc(Br)cc1	-29%&-11%	-13%&-16%
Cc1ccc(N(CC(=O)NCc2ccco2)C(=O)CCC(=O)Nc2ccccn2)c(C)c1	5%	-4%
CCOc1ccc(NC(=O)CCn2cccc2)cc1	-3%	-19%
COc1ccc(C)c2sc(NC(=O)CCS(=O)(=O)c3ccccc3)nc12	?	?
O=C1CC(C(=O)N2CCN(c3ccccc3)CC2)CN1Cc1ccccc1 (configuration not stated)	-7%	i
CC(CN1CCc2nnc(CNC(=O)c3cccc(F)c3)n2CC1)c1ccccc1 (configuration not stated)	-10%	-12%
CC1(C(=O)NS(=O)(=O)Cc2cccc(Cl)c2)CCN1C(=O)C1(c2ccc(Cl)cc2)CCC1 (configuration not stated)	-18%	i
COc1ccc(S(=O)(=O)N2CCN(C(=O)c3sccc3-c3ccccc3)CC2)cc1	-25%	-4%
CC(C)Oc1cc(F)ccc1-c1cc(C(=O)NC2CCCCC2)[nH]n1	-21%	-1%
CCOc1ncccc1C(=O)OCC(=O)N(CC)c1ccccc1	-1%	-4%
CC(=O)CSc1nc2c(c(=O)[nH]c(=O)n2C)n1Cc1cccc(Br)c1	?	-15%
O=C(O)c1ccc2c(c1)C(=O)/C(=C/c1ccccc1)C2=O	73%[activator]	46%[activator]
Cc1ccc(CC2CC(=O)N(c3ccc4c(c3)OCCO4)C2=O)cc1 (configuration not stated)	-8%	·
CC(C)c1ccc(NC(=O)C2(C)Cc3c(-c4ccc5c(c4)OCO5)ccnc3O2)cc1 (configuration not stated)	-22%	-28%
COC(=O)CSc1nc(C)cc(Oc2ccccc2)n1	-6%	i
Nc1nc(=O)n(C2CC(O)C(CO)O2)cc1F (configuration not stated)	?	?
CCOc1ccccc1NC(=O)COC(=O)c1cc(C)oc1C	-12%	-1%
CC(=O)c1ccc(NC(=S)Nc2cccc(Cl)c2C)cc1	-15%	-2%
O=c1c2c3c(sc2nnn1Cc1ccc(F)cc1)CCCC3	-13%	5%
CCOc1ccccc1NC(=O)Cn1c(=O)n(Cc2ccc(OC)cc2)c(=O)c2oc3ccccc3c21	-16%	-16%
COc1ccccc1-c1cccc([C@@H]2C[C@H]3[C@H](CON3C)CN2C(=O)CCc2ccccc2)c1	-16%	-21%
NC/C=C\C(=O)O	-14%	-17%
Cc1ccccc1C(=O)NC(=S)NCC(=O)c1ccccc1	?	?
Cc1ccc(C(=O)CNc2ccccc2C)cc1	-3%	-1%
O=C(COC(=O)c1n[nH]c2ccccc12)NC1CCCCC1	-12%	-14%
CCN(CC)CCNC(=O)c1ccc(CSc2nc3ccncc3n2Cc2cccc(F)c2)cc1	-7%	-2%
COc1ccc(-n2c(SCC(=O)Nc3cc(C)on3)nc3c(c2=O)SCC3)cc1	-10%	i
COc1ccc(-c2ccnc3c(C(=O)O)cnn23)cc1	-2%	i
Clc1ccc2nc(-c3cccc(Br)c3)c(Cc3ccccc3)n2c1	-12%	8%
O=C(CNCc1ccc(F)cc1)Nc1ccccc1[N+](=O)[O-]	3%	i
Cc1ccc(S(=O)(=O)N2CCN(CCOc3c(Cl)cccc3Cl)CC2)cc1C	-14%	-19%
Cc1cccc(NC(=O)CSc2ncnc3sc(C)c(C)c23)n1	2%	8%
CCc1nnc(NS(=O)(=O)c2ccc(N=Cc3c(C)[nH]n(-c4ccc(C)cc4)c3=O)cc2)s1	-14%	i
COc1ccc2cc(C(=O)C3CCCN(C(=O)/C=C/c4ccccn4)C3)ccc2c1 (configuration not stated)	-8%	-8%
Cc1cc(NC(=O)OC(C)(C)C)c(-n2nnnc2C(C(=O)c2ccc3c(c2)OCO3)N2CCN(c3ccccn3)CC2)cc1C (configuration not stated)	-9%	?
Cc1ccc(C)c(N2CCN(C(=O)CN3C(=S)NC(C)(C)CC3C)CC2)c1 (configuration not stated)	-7%	-8%
O=C(NC1C=CS(=O)(=O)C1)c1ccccc1 (configuration not stated)	-17%	-6%
CC(=O)Nc1nonc1NC(=O)CSC1=NCCS1	-11%	-10%
CCOC(=O)c1ccc(-n2c(C)nc3c(cnn3-c3ccccc3Cl)c2=O)cc1	-23%	-29%
Cc1ccccc1NC(=O)C1CCC(C)(C(=O)O)C1(C)C (configuration not stated)	-7%	·
Cc1c(O)ccc2c(CC(=O)N[C@@H](Cc3c[nH]c4ccccc34)C(=O)O)cc(=O)oc12	-12%	i
CN1CCN(c2nc3c(c(=O)[nH]c(=O)n3C)n2CCOc2ccccc2)CC1	-25%	-3%

Some of these compounds in order of molar mass, low to high.
SMILES	VACV Venus inh	Vaccinia mCherry
O=C(NC1C=CS(=O)(=O)C1)c1ccccc1 (configuration not stated)	-17%	-6%
Cc1ccc(C(=O)CNc2ccccc2C)cc1	-3%	-1%
COc1ccc(-c2ccnc3c(C(=O)O)cnn23)cc1	-2%	i
Cc1ccccc1NC(=O)C1CCC(C)(C(=O)O)C1(C)C (configuration not stated)	-7%	·
O=C(COC(=O)c1n[nH]c2ccccc12)NC1CCCCC1	-12%	-14%
O=C(CNCc1ccc(F)cc1)Nc1ccccc1[N+](=O)[O-]	3%	i
Cc1ccccc1C(=O)NC(=S)NCC(=O)c1ccccc1	?	?
Cc1cccc(NC(=O)CSc2ncnc3sc(C)c(C)c23)n1	2%	8%
Cc1ccc(C)c(N2CCN(C(=O)CN3C(=S)NC(C)(C)CC3C)CC2)c1 (configuration not stated)	-7%	-8%
Clc1ccc2nc(-c3cccc(Br)c3)c(Cc3ccccc3)n2c1	-12%	8%
COc1ccc2cc(C(=O)C3CCCN(C(=O)/C=C/c4ccccn4)C3)ccc2c1 (configuration not stated)	-8%	-8%
CCOC(=O)c1ccc(-n2c(C)nc3c(cnn3-c3ccccc3Cl)c2=O)cc1	-23%	-29%
COc1ccc(-n2c(SCC(=O)Nc3cc(C)on3)nc3c(c2=O)SCC3)cc1	-10%	i
Cc1ccc(S(=O)(=O)N2CCN(CCOc3c(Cl)cccc3Cl)CC2)cc1C	-14%	-19%
CCc1nnc(NS(=O)(=O)c2ccc(N=Cc3c(C)[nH]n(-c4ccc(C)cc4)c3=O)cc2)s1	-14%	i
CCN(CC)CCNC(=O)c1ccc(CSc2nc3ccncc3n2Cc2cccc(F)c2)cc1	-7%	-2%
Cc1cc(NC(=O)OC(C)(C)C)c(-n2nnnc2C(C(=O)c2ccc3c(c2)OCO3)N2CCN(c3ccccn3)CC2)cc1C (configuration not stated)	-9%	?

(cont.)
SMILES	VACV Venus inh	Vaccinia mCherry
Cc1c(NC(=O)CN2CCN(c3ccc(O)cc3)CC2)c(=O)n(-c2ccccc2)n1C	5%	-14%
Cc1ccccc1Cn1c(SCc2ccc(C(=O)N3CCCCC3)cc2)nc2ccncc21	-13%	-19%
CC1(C(=O)NS(=O)(=O)C2CC2)CCN(C(=O)COc2ccc(Cl)cc2Cl)C1 (configuration not stated)	1%	4%
CCOC(=O)N1CCN(C(=O)C2CCCN(Cc3nc(-c4ccc(Cl)cc4)oc3C)C2)CC1 (configuration not stated)	?	?
N#CCN1CCC(c2cc(-c3ccco3)n[nH]2)CC1	-7%	-3%
COc1ccc(CCNC(=O)CC2SC(=NCCc3ccccc3)NC2=O)cc1OC (configuration not stated)	-13%	0%
Cc1ccc(NC(=O)CCC2CC(C)(C)OC2=O)cc1 (configuration not stated)	-10%	-5%
CC(C)(C)c1nn(-c2ccccc2)c2[nH]c(=O)c(CNCc3ccc4c(c3)OCO4)cc12	0%	?
CCOC(=O)c1ccc2[nH]c3c(c2c1)CCCC3C(=O)OCC (configuration not stated)	-8%	·
COc1cccc(N2CCN(C3OC(=O)c4ccccc43)CC2)c1 (configuration not stated)	2%	·
Cc1cccc(NC(=O)C2CCCN(S(=O)(=O)c3ccc(-n4cnnn4)cc3)C2)c1 (configuration not stated)	13%	-2%
Cc1cccc(C)c1OCC(N)C(C)C (configuration not stated)	-12%	-14%
COc1ccc(NC(=O)CN2C(=O)C(=O)c3ccccc32)c(OC)c1	-5%	-9%
O=C(NNS(=O)(=O)c1ccc(Cl)cc1)c1cc(-c2ccccc2)n[nH]1	-16%	i
CC(=O)N1CCc2c(sc3c2c(=O)n(-c2ccccc2)c(=O)n3CC(=O)c2ccc(Cl)cc2)C1	8%	-11%
CC1=C(C(=O)Nc2cc(Cl)ccc2C)C(c2cccs2)n2ncnc2N1 (configuration not stated)	-13%	-15%
O=C(O)/C(=C\c1ccc(Cl)cc1)c1ccc(F)cc1	2%	4%
Cc1cc(C(=O)N/N=C/c2ccccn2)c2ccccc2n1	9%	-20%
COc1cc(NC(=O)Cn2c(=O)n(Cc3ccco3)c(=O)c3sc4ccccc4c32)cc(OC)c1	-9%	-9%
CCOc1ccc(S(=O)(=O)Nc2nc3ccccc3nc2N2CCN(C)CC2)cc1	-18%	·
CC(=O)Nc1ccc(C(=O)CSc2ncn(-c3ccccc3)n2)cc1	-11%	i
COCCn1c(-c2ccc(OC)c(OC)c2)nc2ccccc21	-14%	·
C=CCn1nc(C(=O)OCC)cc1-c1sc(NC(=O)c2ccccc2)nc1C	-17%	0%
CCOC(=O)c1ccc2c(c1)C1C=CCC1C(C(=O)OCC)N2 (configuration not stated)	-2%	i
CCOCCCNC(=O)C1CCCN(S(=O)(=O)c2ccc(-n3cnnn3)cc2)C1 (configuration not stated)	-3%	-2%
Cc1[nH]c2ccc(OC(F)(F)F)cc2c1CCN1C(=O)c2ccc(C(=O)O)cc2C1=O	-9%	i
COc1cc(Cl)c(C)cc1NC(=O)CSCc1nc(-c2ccc(OC)c(OC)c2)no1	0%	i
Cc1ccc(C)c(NC2=C(Cl)C(=O)OC2OC(C)C)c1 (configuration not stated)	-9%	i
Cc1ccc(N2CCN(S(=O)(=O)c3ccc4c(c3)n(C)c(=O)c(=O)n4C)CC2C)cc1 (configuration not stated)	-6%	-11%
Oc1ccc(C2=Nn3c(nnc3-c3ccco3)SC2)cc1O	-27%	·
COc1ccc2c(c1OC)C(=O)OC2c1c(O)nc(SC)n(-c2ccccc2)c1=O (configuration not stated)	-4%	4%[1.46 µM]
COc1ccc(NC(=O)CN(C)C(=O)c2ccccc2OC)cc1	-2%	0%
CN1CCN(C2=Cc3ccccc3Oc3ccc(Cl)cc32)CC1	-20%	-15%
COc1ccc(C(C)NC(=O)C2CCN(CCCc3ccccc3)CC2)cc1OC (configuration not stated)	-17%	i
Cc1nc2nc(C)c(CCC(=O)NCCCN3CCN(c4cccc(Cl)c4)CC3)c(C)n2n1	-17%&-10%	i
CCN(CC)S(=O)(=O)c1ccc(C(=O)NNC(=O)c2csc(N3CCOCC3)n2)cc1	-4%	-12%
Cc1ccc(S(=O)(=O)NNC(=O)c2ccncc2)cc1	-3%	-13%
O=S(=O)(Cc1ccccc1)Cc1cnc(Cl)s1	-10%	i
O=c1c(=O)n(-c2ccccc2)ccn1Cc1c(F)cccc1Cl	-9%	-3%
CC(C)CCNC(=O)CN1C(=O)COc2ccc(S(=O)(=O)N3CCOCC3)cc21	10%	-3%
COc1ccc(NC(=O)COC(=O)c2ccc(OCc3ccc(Cl)cc3Cl)c(OC)c2)c(OC)c1	-8%	-15%
O=C(c1ccco1)N1CCN(S(=O)(=O)c2ccc(Cl)cc2)CC1	-15%	i
CCN1CCN(C(=S)Nc2ccc(Cl)c(Cl)c2)CC1	-17%	i
COc1ccccc1OCCn1c(C(C)Oc2ccccc2)nc2ccccc21 (configuration not stated)	-18%	-12%
Cc1ccc(NC(=S)N2CCN(c3ncccn3)CC2)c(C)c1	-3%	-13%
COC(=O)c1ccc(C(=O)OC)c(NS(=O)(=O)c2ccc(NC(C)=O)cc2)c1	4%	-13%
Cc1cc(Nc2cccc(Cl)c2Cl)n2ncnc2n1	-18%	i
Cc1[nH][nH]c(=O)c1C(c1cc([N+](=O)[O-])ccc1O)c1c(C)[nH][nH]c1=O	-2%	i
O=C(COC(=O)c1cncc(Br)c1)NC1CCCCC1	-4%	i
c1ccc(-n2nnnc2NC2CCCCCC2)cc1	-4%	-14%

Continuation.
SMILES	VACV Venus inh	Vaccinia mCherry
Cc1nn(C)c(C(=O)Nc2ccc(Cn3cccn3)cc2)c1[N+](=O)[O-]	-15%	-11%
OC(c1ccc(F)c(F)c1)c1nc(-c2cccs2)cs1 (configuration not stated)	-14%	4%
O=C1/C(=C/c2ccncc2)SC(=S)N1Cc1ccccc1	-7%	-12%
COc1ccccc1C(=O)NCC(c1ccco1)N1CCc2ccccc21 (configuration not stated)	-3%	?
C[C@]1(C(=O)NCc2cc(F)cc(C(F)(F)F)c2)C=C[C@@H](Cc2ccccc2)N1C(=O)c1ccccc1	-27%	-10%
Cc1ccc2oc(=O)n(Cc3ccc(F)cc3)c2c1	-3%	-12%
